Screening results from PubChem BioAssay.
MARV entry inh = blocks Marburg virus binding to or entry into cells | Marburg virus pseudotyped entry inhibition, cell reporter; control for the full effect not named in the record; about a third of the inactives were read at about 46 µM | 300,000 compounds, 1.8% hits | AID 540276 | Potency, µM (titrated, usually from 37.8 µM), without a hit: at the top dose activity change, negative = inhibition, usual class: inhibitors; active = well fitted inhibition curve with a large enough effect; inconclusive = small, poorly fitted or top-dose-only effect, or effect the other way; inactive = flat fitted curve, though single readings scatter; tested in HEK293 cells; about a fifth of its hits are not listed in these tables; further: luciferase read-out
StopGo reporter = lowers the luciferase signal of an FMDV 2A StopGo reporter; human cells with a luciferase reporter of 2A StopGo recoding; control for the full effect not named in the record; Potency, µM (highest dose often 57.9 µM), inactives show top-dose signal change, negative = less light; 410,000 compounds, 1.2% hits; active = well fitted falling curve with a large enough effect; inconclusive = small, poorly fitted or top-dose-only effect; inactive = no such curve, though single readings can be large or run the other way; tested in HEK293T cells; further: nearly all actives have a fitted effect of over 45% in size; luciferase light after 4 h
Lassa entry inh = blocks Lassa virus binding to or entry into cells; Lassa virus pseudotype entry inhibition, cell reporter; control for the full effect not named in the record; 300,000 compounds, 1.2% hits; Potency, µM (titrated, usually from 37.9 µM), without a hit: at the highest dose activity change, negative = inhibition, hits mostly inhibitors; active means well fitted inhibition curve with a large enough effect; inconclusive means small, poorly fitted or top-dose-only effect, or effect the other way; inactive means flat fitted curve, though single readings scatter; tested in HEK293 cells; further: nearly all actives have a fitted effect of over 50% in size; luciferase read-out
RE007 growth inh = less growth of the S. pombe RE007 Vpr strain; 360,000 compounds, 0.21% hits; S. pombe RE007 Vpr strain, BacTiter-Glo ATP luminescence, 24 h; control for the full effect not named in the record; Potency, µM (top dose mostly 92.2 µM), inactives show at the highest dose activity change, negative = less growth; active = well fitted falling curve with a large enough effect; inconclusive = small, poorly fitted or top-dose-only effect; inactive = no such curve, though single readings can be large or run the other way;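 further: nearly all actives have a fitted effect of over 50% in size; the assay follows cell death caused by Vpr and the record does not say whether a fall means rescue or toxicity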
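Fission yeast RE007 carrying one integrated HIV-1 vpr copy, seeded at OD 0.01 in PMG+AL medium with 23 nL pinned compound. Grown 24 h at 30 degrees; viability read by BacTiter-Glo luminescence after 5 min.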
Numbers without * were called inactive; ? = inconclusive; · = no result given; [ ] = remark or other dose. On the % scale 0 is the no-effect control and ±100 the full control effect; potency means the concentration at half of the fitted maximal effect. Not all compounds are listed. The share of hits here may be higher or lower than overall.

Values in the order: MARV entry inh	StopGo reporter	Lassa entry inh	RE007 growth inh
1	CCn1cc(S(=O)(=O)c2cc(C)cc(C)c2)c(=O)c2cc(F)c(N3CCOCC3)cc21
    ·	35%[activator]	0%[46.1 µM]	·
2	O=c1c(S(=O)(=O)c2cccc(Cl)c2)cn(Cc2ccccc2)c2cc(N3CCCCC3)c(F)cc12
    ·	10%	?	·
3	CCN(C(=O)C1CCCN(c2ncnc3c2nc2n3CCCCC2)C1)c1cccc(C)c1 (stereo not drawn)
    ·	?	?	·
4	CC(C)Oc1ccc(CNC(=O)CN2C(=O)c3cccnc3Oc3ccc(Cl)cc32)cc1
    ·	-18%	?	·
5	O=C(Cn1cc(S(=O)(=O)Cc2cccc(Cl)c2)c2ccccc21)NCc1ccccc1Cl
    ·	-11%	-15%[46.1 µM]	·
6	O=C(Cn1c(-c2cccs2)cc2cc(Cl)ccc21)N1CCN(c2ccccc2F)CC1
    ·	8%	?	·
7	CCN1CCC(N(Cc2ccc3c(c2)OCO3)C(=O)Nc2cccc(C)c2C)CC1
    ·	-3%	-29%[46.1 µM]	·
8	CCCCn1cc(S(=O)(=O)c2cccc(C)c2)c(=O)c2cc(F)c(N3CCOCC3)cc21
    ·	18%	-20%[46.1 µM]	·
9	CC(=O)N1CCC(N(Cc2ccco2)C(=O)Nc2ccc(Br)cc2F)CC1
    ·	-20%	-10%[46.1 µM]	·
10	CC1Cc2cc(S(=O)(=O)N3CCN(c4ccccc4F)CC3)ccc2N1C(=O)C1CCC1 (stereo not drawn)
    ·	-29%	?	·
11	O=C(COCc1cc(-c2cccs2)on1)NCc1cccc(Cl)c1
    ·	-16%	-1%[46.1 µM]	·
12	COCCCNC(=O)Cn1c(=O)n(-c2ccc(C)cc2)c(=O)c2c1c1cc(C)ccc1n2C
    ·	-2%	-1%[46.1 µM]	·
13	CCCCn1cc(S(=O)(=O)c2ccccc2)c(=O)c2cc(F)c(N3CCN(CCC)CC3)cc21
    ·	-8%	-18%[46.1 µM]	·
14	Cc1ccc(C)c(N(C)C(=O)C2CCN(c3ncnc4c3nc3n4CCCCC3)CC2)c1
    ·	-14%	?	·
15	COC(=O)c1ccc(NS(=O)(=O)c2ccc3[nH]c4c(c3c2)CCCC4)cc1
    ·	39%[activator]	-1%[46.1 µM]	·
16	O=C(NC1CC1)c1ccc(Cn2c(SCc3cccc(F)c3)nc3cccnc32)cc1
    ·	-18%	-7%[46.1 µM]	·
17	COc1cccc(CNC(=O)CN(C)S(=O)(=O)c2ccc3[nH]c4c(c3c2)CCCC4)c1
    ·	-22%	9%[46.1 µM]	·
18	CCC1CN(C(=O)Nc2ccc(C)c(F)c2)c2ccccc2S1 (stereo not drawn)
    ·	27%	2%[46.1 µM]	·
19	CCOc1ccccc1NC(=O)N(Cc1ccc(C)o1)C1CCN(C(C)=O)CC1
    ·	-17%	0%[46.1 µM]	·
20	CCCCOc1ccc(C(C)NC(=O)c2cccc(Nc3nc4ccccc4n4nnnc34)c2)cc1 (stereo not drawn)
    ·	-18%	0%[46.1 µM]	·
21	Cc1cc(Nc2cccc(Cl)c2)nc2ccc(NC(=O)c3cccc(N(C)C)c3)cc12
    ·	-10%	-14%[46.1 µM]	·
22	Cc1ccc(NC(=O)N(Cc2ccc3c(c2)OCO3)C2CCN(Cc3ccccc3)CC2)cc1Cl
    ·	-15%	11µM*	·
23	CSc1ncc(C(=O)N2CCN(c3cc(Cl)ccc3C)CC2)c(C)n1
    ·	?	?	·
24	Cc1cccc(CNC(=O)CN2C(=O)CCCc3ccccc32)c1
    ·	7%	18%[46.1 µM]	·
25	COC(=O)c1ccc(NC(=O)N2CCC(CN3CCc4ccccc4C3)CC2)cc1
    ·	20%	1%[46.1 µM]	·
26	O=C(Cn1cc(S(=O)(=O)Cc2ccc(F)cc2)c2ccccc21)NCc1ccccc1Cl
    ·	-9%	?	·
27	CCn1cc(S(=O)(=O)c2ccc(C)cc2)c(=O)c2cc(F)c(N3CCCCCC3)cc21
    ·	-17%	4%[46.1 µM]	·
28	COc1ccc(-c2nc(Cn3c(SCc4ccccc4F)nc4cccnc43)c(C)o2)cc1
    ·	-20%	?	·
29	Cc1ccc(C)c(CN2CCC(CNC(=O)Cn3ncc4c([nH]c5ccccc54)c3=O)CC2)c1
    ·	-1%	17%[46.1 µM]	·
30	COc1ccccc1CNC(=O)c1ccc(-n2c(C)cc3c2CCCC3)cc1
    ·	-8%	?	·
31	Cc1ccc(Cn2c(=O)n(-c3ccc(C)cc3)c(=O)c3c2c2cc(C)ccc2n3C)cc1
    ·	9%	3%[46.1 µM]	·
32	CCOc1ccccc1N(CC)C(=O)Cn1ncc2c([nH]c3ccccc32)c1=O
    ·	?	?	·
33	O=C(Nc1cccc(Br)c1)N1CCC(CN2CCCCC2)CC1
    ·	-18%	24%[46.1 µM]	·
34	Cc1ccc(CCNC(=O)Cn2c(-c3cccs3)cc3ccccc32)cc1
    ·	-23%	7%[46.1 µM]	·
35	CC1CCCN(c2cc3c(cc2F)c(=O)c(S(=O)(=O)c2cccc(Cl)c2)cn3C)C1 (stereo not drawn)
    ·	6%	-5%[46.1 µM]	·
36	Cc1cc(Nc2cccc(Cl)c2)nc2ccc(NC(=O)Cc3c(F)cccc3Cl)cc12
    ·	-3%	-13%[46.1 µM]	·
37	COc1ccc(NC(=O)CN2C(=O)COc3ccc(S(=O)(=O)NC4CCCC4)cc32)cc1OC
    ·	8%	14%[46.1 µM]	·
38	COc1ccc(NC(=O)N2CCC(CN3CCCC3)CC2)c(OC)c1
    ·	-11%	?	·
39	CSc1ncc(C(=O)NCc2ccc(Cl)cc2)c(C(F)(F)F)n1
    ·	-21%	3%[46.1 µM]	·
40	CC(C)c1ccc(NC(=O)Cn2cc(S(=O)(=O)Cc3ccccc3Cl)c3ccccc32)cc1
    ·	-17%	?	·
41	Cc1ccc(C)c(NC(=O)N2CCC(CN3CCOCC3)CC2)c1
    ·	1%	9%[46.1 µM]	·
42	COC(=O)c1ccc(NC(=O)C(C)N2Cc3ccccc3C2=O)cc1 (stereo not drawn)
    ·	-5%	6%[46.1 µM]	·
43	CN(Cc1ccccc1)C(=O)c1nc(-c2ccc(Cl)cc2)n2c1CCCCC2
    ·	-2%	-15%[46.1 µM]	·
44	Cc1cccc(CNC(=O)CCCN2C(=O)c3cccnc3Oc3ccccc32)c1
    ·	-8%	-3%[46.1 µM]	·
45	COc1ccc(-c2cn3nc(N4CCCC(C(=O)Nc5cc(Cl)ccc5OC)C4)sc3n2)cc1 (stereo not drawn)
    ·	10%	-1%[46.1 µM]	·
46	O=C(C1CCN(c2ncnc3c2nc2n3CCCCC2)CC1)N1CCN(c2ccccc2)CC1
    ·	?	-5%[46.1 µM]	·
47	O=C(NCCc1ccccc1)c1nc(-c2ccc(Cl)cc2)n2c1CCCCC2
    ·	-15%	?	·
48	O=C(Cn1cc(S(=O)(=O)Cc2cccc(Cl)c2)c2ccccc21)Nc1ccccc1Cl
    ·	0%	1%[46.1 µM]	·
49	COc1cc(/C=C2/N=C(c3ccccc3)OC2=O)c(F)cc1OCc1ccccc1
    0%	-10%	·	·
50	C=CCN1CCC2(C)c3cc(O)ccc3CC1[C@@H]2C (stereo partly drawn)
    ?	-4%	·	·
51	O=S(=O)(NCC1CCCO1)c1ccc(S(=O)(=O)N(Cc2ccccc2F)C2CCCCC2)cc1 (stereo not drawn)
    ?	·	0%	11%
52	Cc1cccc2c(=O)c(C(=O)NCc3cccs3)c[nH]c12
    16%	·	6%	0%
53	Cc1c(N2C(=O)/C(=C/c3cccc4ccccc34)SC2=S)c(=O)n(-c2ccccc2)n1C
    3%	·	8%	-6%
54	COc1cccc(C2NC(=O)NC(C)=C2C(=O)OCCSC)c1OC (stereo not drawn)
    -7%	·	0%	-15%
55	CC(=O)OCC12CC(OC(=O)CC(C)C)C(C)=CC1OC1C(O)C(OC(C)=O)C2(C)C12CO2 (stereo not drawn)
    ·	·	·	5.6µM*
56	O=C(Cc1ccccc1)N/N=C/c1ccccn1
    15%	·	5%	-1%
57	CCOc1ccccc1C(=O)N(Cc1ccccc1)Cc1cc2cc3c(cc2[nH]c1=O)OCCO3
    ?	·	?	13%
58	CCOC(=O)/C=C1\NC2(CCCCC2)Cc2cc(OC)c(OC)cc21
    1%	·	-21%	6%
59	Cc1nc2ccccc2n1/N=C/c1ccc([N+](=O)[O-])o1
    15µM*	·	?	?
60	CC1=CC2OC3CC4OC(=O)C=CC=CC(=O)OCCC(C)C(O)C(=O)OCC2(CC1O)C4(C)C31CO1 (stereo not drawn)
    ·	·	·	?

Entries of single compounds from above.
`Cc1ccc(Cn2c(=O)n(-c3ccc(C)cc3)c(=O)c3c2c2cc(C)ccc2n3C)cc1` is listed as MARV entry inh = ·; StopGo reporter = 9%; Lassa entry inh = 3%[46.1 µM]; RE007 growth inh = ·
`CC1CCCN(c2cc3c(cc2F)c(=O)c(S(=O)(=O)c2cccc(Cl)c2)cn3C)C1` (stereo not drawn) is listed as MARV entry inh = ·; StopGo reporter = 6%; Lassa entry inh = -5%[46.1 µM]; RE007 growth inh = ·

New compounds follow:
Values in the order: MARV entry inh	StopGo reporter	Lassa entry inh	RE007 growth inh
61	O=C(N/N=C/c1cc2c(cc1Cl)OCO2)c1ccccn1
    -8%	·	?	-2%
62	Cc1nc(SCC(=O)Nc2c(C)n(C)n(-c3ccccc3)c2=O)[nH]c(=O)c1C
    ?	·	2%	10%
63	Cc1nc2sc(C(c3ccco3)N3CCC4(CC3)OCCO4)c(O)n2n1 (stereo not drawn)
    14%	·	4%	-8%
64	Cc1cc2cc(C)c3nnc(SCC(=O)N4CCN(C(=O)c5ccco5)CC4)n3c2cc1C
    -7%	·	-15%	4%
65	O=C(N[C@H]1CC[C@H](CCNC(=O)C2CC2)O[C@@H]1CO)c1ccccn1
    ·	-18%	·	-6%
66	C[C@H](CO)N1C[C@H](C)[C@H](CN(C)C(=O)c2ccccc2F)Oc2ncc(Br)cc2C1=O
    ·	-7%	·	-10%
67	O=C1NCCN(CC2CCN(CC3CCCC3)CC2)C1=O
    ·	-7%	·	-7%
68	C[C@@H]1CN([C@@H](C)CO)S(=O)(=O)c2ccc(Br)cc2O[C@H]1CN(C)Cc1ccncc1
    ·	-7%	·	33%
69	COc1ccc(C=Cc2ccc3ccccc3n2)c(OC)c1
    ·	?	·	?
70	O=C(OC1C2C=CC1C1C(=O)NC21)c1ccccc1 (stereo not drawn)
    ·	-7%	·	-5%
71	Cc1ccc(-c2nc3cc(C)c(Br)c(C)n3c2CC(C)(C)C)cc1
    ·	-11%	·	-11%
72	CCOC(=O)CC1c2ccccc2-n2nncc2CN1CC1CCCCC1 (stereo not drawn)
    ·	0%	·	-7%
73	ClCc1c2ccccc2cc2ccccc12
    ·	-11%	·	-13%[18.4 µM]
74	O=C(NC(Cc1c[nH]c2ccccc12)C(=O)O)c1cccc(S(=O)(=O)N2CCCCC2)c1 (stereo not drawn)
    ·	-3%	·	10%
75	CCC(C(=O)NC1CCCCCC1)c1ccccc1 (stereo not drawn)
    ·	-16%	·	12%
76	CC(C)NC(=O)N(C)C[C@H]1OCc2cnnn2CCCC(=O)N([C@H](C)CO)C[C@H]1C
    ·	-15%	·	38%
77	COc1ccc(C(O)c2ncc(-c3ccccc3Cl)[nH]2)cc1F (stereo not drawn)
    ·	0%	·	-26%
78	CCOc1ccccc1N(CC(=O)NCCc1ccc(OC)cc1)S(=O)(=O)c1ccc(C)cc1
    ·	?	·	-5%
79	COCCn1c(=S)[nH]c2cc(C(=O)NC3CCCCCC3)ccc2c1=O
    ·	-19%	·	0%

Taken from above.
COc1ccc(-c2cn3nc(N4CCCC(C(=O)Nc5cc(Cl)ccc5OC)C4)sc3n2)cc1 (stereo not drawn) in StopGo reporter is listed with 10%
CC1CCCN(c2cc3c(cc2F)c(=O)c(S(=O)(=O)c2cccc(Cl)c2)cn3C)C1 (stereo not drawn) in StopGo reporter is listed with 6%
Cc1cccc2c(=O)c(C(=O)NCc3cccs3)c[nH]c12 in MARV entry inh is listed with 16%
CCOC(=O)/C=C1\NC2(CCCCC2)Cc2cc(OC)c(OC)cc21 in RE007 growth inh is listed with 6%
Cc1ccc(Cn2c(=O)n(-c3ccc(C)cc3)c(=O)c3c2c2cc(C)ccc2n3C)cc1 in Lassa entry inh is listed with 3%[46.1 µM]
CC1Cc2cc(S(=O)(=O)N3CCN(c4ccccc4F)CC3)ccc2N1C(=O)C1CCC1 (stereo not drawn) in StopGo reporter is listed with -29%
